Y pestis TopoI = Y. pestis Topo-I inhibition via cleavage products | Y. pestis Topo-I cleavage product accumulation, plate reader | activity, % at 10 µM | hit rate 0.064% among 360,000 | AID 504884; in the data active = activity above about 50%, passing the limit was not always enough; inconclusive = no clear call, values can overlap the other calls; also: inactives centre near 2
BoNT F protease = BoNT F light chain protease inhibition; Multiplex microsphere protease cleavage assay, flow cytometry; inhibition, % at 10 µM; hit rate 0.22% among 360,000; in the data active = inhibition above about 35%, passing the limit was not always enough; inconclusive = no clear call, values can overlap the other calls; also: plate controls were buffer without enzyme for full effect and enzyme alone for no effect
PfHsp40 rescue = compounds rescuing yeast from Plasmodium falciparum HSP40 toxicity; S. cerevisiae expressing PfHsp40, growth rescue, ATP luminescence; growth rescue, % at 12.5 µM; hit rate 0.68% among 340,000; in the data active = growth rescue above about 28%, passing the limit was not always enough; inconclusive = no clear call, values can overlap the other calls;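 also: yeast W303a lacking pdr1 and pdr3 grown in galactose medium; growth measured after three days at 30 °C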
PrPC TRFRET = inhibitors of human cell surface prion protein PrPC | P04156 | TR-FRET read-out | inhibition, % at 13.8 µM | hit rate 0.43% among 370,000; in the data active = inhibition above about 24%; also: 0% = median of the test wells and 100% = reference compound wells
TcdB GH inh = inhibitors of Clostridioides difficile toxin B glycohydrolase. AID 652162. hit rate 0.24% among 350,000. P18177. inhibition, % at 9.99 µM. TcdB glycohydrolase enzymatic assay, plate reader; in the data active = inhibition above about 10%
BoNT A protease = blocks Botulinum neurotoxin A light chain protease; multiplex microsphere protease substrate cleavage, flow cytometry; hit rate 0.17% among 360,000; inhibition, % at 10 µM; in the data active = inhibition above about 30%; inconclusive = no clear call, values can overlap the other calls; also: plate controls were buffer without enzyme for full effect and enzyme alone for no effect
FadD28 FP inh = M. tuberculosis FadD28 bisubstrate binding inhibition | hit rate 0.22% among 360,000 | FadD28 bisubstrate probe binding, fluorescence polarization | inhibition, % at 12.5 µM; in the data active = inhibition above about 8.5%, passing the limit was not always enough; inconclusive = no clear call, values can overlap the other calls
CCHFV vOTU inh = CCHFV vOTU protease inhibition | Pep-AMC fluorescence | inhibition, % at 11.5 µM | hit rate 0.55% among 370,000 | AID 651958; in the data active = inhibition above about 30%; also: 0% = vehicle wells with enzyme and 100% = no enzyme wells
Starred values were filed as active, the others as inactive; ? = inconclusive; . = no result given; & = joins results of further samples. Some of the compounds tested; rates above refer to the full screens.

Start of the data: the first four compounds as a preview:
SMILES	Y pestis TopoI	BoNT F protease	PfHsp40 rescue	PrPC TRFRET	TcdB GH inh	BoNT A protease	FadD28 FP inh	CCHFV vOTU inh
CC(C)(C)C(=O)C(Oc1ccc(Cl)cc1)n1cncn1 (centres undefined)	5	-3	397*	4	0.9	0.1	-1.7	9
O=C(O)CCSSCCC(=O)O	4	-1	-1.3	1	1.0	-0.5	-3.8	-5
Cc1ccc(Oc2ccc(OCC(=O)Nc3ccncc3)cc2)cc1	26	-10	.	4	0.8	-0.2	-2.7	4
CO[C@@]12[C@@H]3N[C@@H]3CN1C1=C(C(=O)C(N)=C(C)C1=O)[C@@H]2COC(N)=O	-10	-6	-0.3	-6	1.4	-0.2	-1.4	20

All compounds of this part, repeating the preview:
SMILES	Y pestis TopoI	BoNT F protease	PfHsp40 rescue	PrPC TRFRET	TcdB GH inh	BoNT A protease	FadD28 FP inh	CCHFV vOTU inh
CC(C)(C)C(=O)C(Oc1ccc(Cl)cc1)n1cncn1 (centres undefined)	5	-3	397*	4	0.9	0.1	-1.7	9
O=C(O)CCSSCCC(=O)O	4	-1	-1.3	1	1.0	-0.5	-3.8	-5
Cc1ccc(Oc2ccc(OCC(=O)Nc3ccncc3)cc2)cc1	26	-10	.	4	0.8	-0.2	-2.7	4
CO[C@@]12[C@@H]3N[C@@H]3CN1C1=C(C(=O)C(N)=C(C)C1=O)[C@@H]2COC(N)=O	-10	-6	-0.3	-6	1.4	-0.2	-1.4	20
CON(C)C(=O)Nc1ccc(Cl)cc1	6	-4	0.2	-1	.	-1.5	-1.5	-6
Oc1c(Cl)c(Cl)c(Cl)c(Cl)c1Cl	1	-3	298*	14	0.1	-0.6	0.0	17
COc1ccc2c(c1OC)C(=O)O[C@H]2[C@@H]1c2cc3c(cc2CCN1C)OCO3	-2	-8	-1.3	-5	1.1	-0.1	-2.3	-5
CC(=O)Nc1ccc(N)cc1	2	-14	1.4	-4	0.6	-0.4	-2.6	10
Cc1ccc(-c2nnc(N3CCN(C(=O)c4ccco4)CC3)c3ccccc23)cc1	25	16	1.1	1	.	1.0	-0.9	24
CC(=O)OCC(=O)[C@@]12OC(C)(C)O[C@@H]1CC1C3C[C@H](F)C4=CC(=O)C=CC4(C)[C@@]3(F)C(O)CC12C (some centres undefined)	-6	-8	-0.2	13	2.2	-0.5	-0.1	-3
O=c1c(-c2ccc(O)cc2)coc2cc(O)ccc12	-2	-2	-0.6	1	3.3	-0.5	-2.1	-7
Cc1ccc(NC(=O)C2CCCN2S(=O)(=O)c2cccc3cccnc23)c(C)c1 (centres undefined)	15	-8	17	5	1.0	-1.4	-4.8	12
CC(C)Nc1ccc(Nc2ccccc2)cc1	-16	-29	2.1	-12	1.3	7.7	-2.4	3
CCN1C(=O)NC(c2ccccc2)C1=O (centres undefined)	-3	6	-2.0	-6	2.4	1.7	-1.1	4
O=P(Oc1ccccc1)(N1CCOCC1)N1CCOCC1	8	-2	-0.6	0	0.6	0.4	-2.7	-1
O=C(O)c1cc(-c2ccccc2)nc2ccccc12	1	-6	-0.6	8	1.8	-0.1	-0.2	-4
Nc1cc(Cl)cc(Cl)c1	0	-1	-1.4	6	0.3	0.0	-3.5	2
c1ccc2sc(C3CCCNC3)nc2c1 (centres undefined)	13	3	-0.8	-3	.	0.4	1.2	13
Cc1cc(=O)n(-c2ccccc2)n1C	1	-9	-0.4	-2	-0.1	0.3	-1.4	0
CCOC(=O)[C@H](CCc1ccccc1)N[C@@H](C)C(=O)N1C(C(=O)O)C[C@@H]2CCC[C@@H]21 (some centres undefined)	-9	5	-1.5	6	-1.0	-1.0	-1.5	12
Cc1cc(=O)n(-c2ccc(C(=O)O)cc2)[nH]1	1	-3	2.2	-3	-3.4	0.0	-2.3	54*
CCOP(=S)(OCC)Oc1ccc2c(C)c(Cl)c(=O)oc2c1	-8	-2	.	68*	1.7	-0.4	-3.8	4
OCc1ccccc1O[C@@H]1O[C@H](CO)[C@@H](O)[C@H](O)[C@H]1O	5	-5	-0.5	4	0.1	0.1	-0.1	0
NC(=O)c1cccnc1	-11	2	0.5	7	0.1	0.0	-1.8	-12
NC(N)=NC(=O)c1nc(Cl)c(N)nc1N	-3&4&-8	-5&6&5	0.0&0.8&1.0	-12&-5&-3	1.4&0.8&0.0	0.2&-0.4&0.5	-0.4&-0.4&-4.8	-19&-22&-17
CC1(C)S[C@@H]2[C@H](NC(=O)[C@H](N)c3ccccc3)C(=O)N2[C@H]1C(=O)O	12&-3	3&1	0.6&-0.1	-3&-3	0.4&2.0	0.0&0.6	-3.9&0.0	-3&-5
NCCS(=O)(=O)O	-1	10	-0.1	1	-0.2	-0.5	0.9	-4
O=[N+]([O-])c1cnc[nH]1	4	-9	-1.9	-4	1.1	-0.8	0.2	1
COc1cc(C(=O)O)ccc1O	11	-4	-1.0	-1	0.8	-0.1	-4.3	-1
O=C(O)C[C@@H](O)C(=O)O	4	0	-1.1	3	0.0	-1.0	-1.3	-3
Cc1cc(C(=O)N[C@@H](c2ccccc2)[C@]2(C)C[C@H]2[C@@H](C)C(=O)Nc2ccc3ccccc3c2)no1	-2	-16	1.3	-7	1.1	-0.3	-1.4	3
CO[C@@]12[C@H](COC(N)=O)C3=C(C(=O)C(C)=C(N)C3=O)N1C[C@@H]1N[C@@H]12	-6	-2	-1.7	2	0.6	-0.7	-3.2	-5
CCN1CCCC1CNC(=O)c1cc(S(N)(=O)=O)ccc1OC (centres undefined)	-4	-6	-0.6	4	0.5	-0.1	-3.6	6
OCCNCCO	1	8	0.6	3	0.2	-0.4	0.1	-13
C[N+]1(C)C2CC(OC(=O)[C@H](CO)c3ccccc3)CC1C1OC12 (some centres undefined)	2	-2	2.4	1	1.5	-0.4	-3.5	-1
CC12CCC(=O)C=C1CCC1C2C(O)CC2(C)C1CCC2(O)C(=O)CO (centres undefined)	8	-3	9.9	-4	0.7	-0.7	0.4	24

Exported with two lines to a compound: entries from further up
Values run as follows: Y pestis TopoI	BoNT F protease	PfHsp40 rescue	PrPC TRFRET	TcdB GH inh	BoNT A protease	FadD28 FP inh	CCHFV vOTU inh
NC(N)=NC(=O)c1nc(Cl)c(N)nc1N
  -3&4&-8	-5&6&5	0.0&0.8&1.0	-12&-5&-3	1.4&0.8&0.0	0.2&-0.4&0.5	-0.4&-0.4&-4.8	-19&-22&-17
CC1(C)S[C@@H]2[C@H](NC(=O)[C@H](N)c3ccccc3)C(=O)N2[C@H]1C(=O)O
  12&-3	3&1	0.6&-0.1	-3&-3	0.4&2.0	0.0&0.6	-3.9&0.0	-3&-5
NCCS(=O)(=O)O
  -1	10	-0.1	1	-0.2	-0.5	0.9	-4
O=[N+]([O-])c1cnc[nH]1
  4	-9	-1.9	-4	1.1	-0.8	0.2	1
COc1cc(C(=O)O)ccc1O
  11	-4	-1.0	-1	0.8	-0.1	-4.3	-1
O=C(O)C[C@@H](O)C(=O)O
  4	0	-1.1	3	0.0	-1.0	-1.3	-3
Cc1cc(C(=O)N[C@@H](c2ccccc2)[C@]2(C)C[C@H]2[C@@H](C)C(=O)Nc2ccc3ccccc3c2)no1
  -2	-16	1.3	-7	1.1	-0.3	-1.4	3

Next records follow.
SMILES	Y pestis TopoI	BoNT F protease	PfHsp40 rescue	PrPC TRFRET	TcdB GH inh	BoNT A protease	FadD28 FP inh	CCHFV vOTU inh
COc1ccc(C(=O)NN)cc1	0	?	-0.3	5	-1.8	1.2	-1.5	-4
CCC(=O)O[C@H]1CC[C@H]2[C@@H]3CCC4=CC(=O)CC[C@]4(C)[C@H]3CC[C@]12C	29	-1	-0.9	-7	-0.3	-0.2	-1.7	13
CN(C)Cc1cc(C(C)(C)C)c(O)c(C(C)(C)C)c1	-1	-10	-0.5	-4	.	-0.4	-3.0	0
Cc1cccc(C)c1NC(=O)CN1CCNCC1	-6	-9	-1.3	3	.	0.7	-2.7	0
CCOC(=O)[C@@H](CCc1ccccc1)N[C@H](C)C(=O)N1[C@H](C(=O)O)C[C@@H]2CCC[C@@H]21	0	-4	-1.5	7	2.2	-0.4	-3.6	0
c1ccc2scnc2c1	8	-3	-1.3	2	-0.2	0.3	-0.4	-1
C[C@H]1C[C@@H](C)C(=O)[C@@H]([C@H](O)CC2CC(=O)NC(=O)C2)C1	3	2	16	89*	-4.1	0.3	1.0	-2
NS(=O)(=O)c1cc2c(cc1Cl)NCNS2(=O)=O	-4	11	-0.4	-2	0.5	0.9	-0.8	2
CN1C2CC(OC(=O)C(CO)c3ccccc3)CC1C1OC12 (centres undefined)	1&1&6	?	-0.3&-1.0&-1.5	2&-7&-11	0.6&2.2&1.9	-2.7&0.1&-2.1	0.5&-2.6&-0.2	2&3&1
